Lassa entry inh: blocks Lassa virus binding to or entry into cells | actives 1.2% (n = 300,000) | Potency, µM (highest dose often 37.9 µM), for the others: at the highest dose activity change, negative = inhibition, usual class: inhibitors | Lassa virus pseudotype entry inhibition, cell reporter; control for the full effect not named in the record; active means well fitted inhibition curve with a large enough effect; inconclusive means small, poorly fitted or top-dose-only effect, or effect the other way; inactive means flat fitted curve, though single readings scatter; tested in HEK293 cells; also: % is scaled to controls: 0 for no effect and ±100 for the full control effect; nearly all actives have a fitted effect of over 50% in size; luciferase read-out
2A StopGo: lowers the luciferase signal of an FMDV 2A StopGo reporter. human cells with a luciferase reporter of 2A StopGo recoding; control for the full effect not named in the record. Potency, µM (titrated, usually from 57.9 µM), for the others: at the top dose signal change, negative = less light. actives 1.2% (n = 410,000); active = well fitted falling curve with a large enough effect; inconclusive = small, poorly fitted or top-dose-only effect; inactive = no such curve, though single readings can be large or run the other way; tested in HEK293T cells; also: % is scaled to controls: 0 for no effect and ±100 for the full control effect; nearly all actives have a fitted effect of over 45% in size; luciferase light after 4 h
NS1 inh: inhibitors of influenza NS1 protein function | actives 0.4% (n = 270,000) | Potency, µM (highest dose often 46.1 µM), without a hit: at the top dose activity, positive = more growth | AID 2326 | S. cerevisiae slowed by influenza A NS1, growth recovery by OD600; also: actives are rising curves; nearly all actives have a fitted effect of over 50% in size
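In this qHTS, NS1 from influenza A is expressed in budding yeast, where it slows growth. Cells are switched from glucose to 2% galactose medium (pH 6.0, -URA), treated with compound, and growth recovery is read at OD600.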
Marburg entry inh: Marburg virus entry inhibition | Marburg virus pseudotyped entry inhibition, cell reporter; control for the full effect not named in the record; about a third of the inactives were read at about 46 µM | Potency, µM (highest dose often 37.8 µM), without a hit: top-dose activity change, negative = inhibition, usual class: inhibitors | actives 1.8% (n = 300,000) | AID 540276; active = well fitted inhibition curve with a large enough effect; inconclusive = small, poorly fitted or top-dose-only effect, or effect the other way; inactive = flat fitted curve, though single readings scatter; tested in HEK293 cells; about a fifth of its hits are not listed in these tables; also: % is scaled to controls: 0 for no effect and ±100 for the full control effect; luciferase read-out
SARS PLpro yeast: SARS-CoV PLP inhibition in yeast; actives 0.19% (n = 330,000); S. cerevisiae expressing SARS-CoV PLpro, growth rescue; control for the full effect not named in the record; Potency, µM (doses to about 32.9 µM), for inactives: top-dose activity, positive = growth rescue; AID 485353; also: 0% is about no effect; nearly all actives have a fitted effect of over 55% in size; growth read by luminescence after 48 h
RE007 growth inh: less growth of the S. pombe RE007 Vpr strain | actives 0.21% (n = 360,000) | AID 651644 | Potency, µM (titrated, usually from 92.2 µM), without a hit: at the top dose activity change, negative = less growth | S. pombe RE007 Vpr strain, BacTiter-Glo ATP luminescence, 24 h; control for the full effect not named in the record; active = well fitted falling curve with a large enough effect; inconclusive = small, poorly fitted or top-dose-only effect; inactive = no such curve, though single readings can be large or run the other way;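 also: % is scaled to controls: 0 for no effect and ±100 for the full control effect; nearly all actives have a fitted effect of over 50% in size; the assay follows cell death caused by Vpr and the record does not say whether a fall means rescue or toxicity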
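Fission yeast strain RE007, carrying one chromosomally integrated HIV-1 vpr copy, was seeded at OD 0.01 in PMG+AL medium with 23 nL pinned compound. After 24 h at 30 °C and 99% humidity, viability was read by BacTiter-Glo luminescence.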
Cruzain noTriton: blocks cruzain activity in detergent-free assay; P25779; purified cruzain, Z-FR-AMC fluorescence, no detergent; Potency, µM, for the others: max response, negative = inhibition, most hits filed as inhibitors; actives 2.3% (n = 200,000); active = well fitted curve in the direction sought with a large enough effect; inconclusive = small, poorly fitted or top-dose-only effect, or another doubt; inactive = no such curve, though single readings can be large; an effect the other way counts as inactive or inconclusive;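 also: plate controls were enzyme without inhibitor for no effect and buffer without enzyme for full effect; nearly all actives have a fitted effect of over 40% in size; top concentration of the series not given in the record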
Target sequence (P25779 123-467 limits assumed): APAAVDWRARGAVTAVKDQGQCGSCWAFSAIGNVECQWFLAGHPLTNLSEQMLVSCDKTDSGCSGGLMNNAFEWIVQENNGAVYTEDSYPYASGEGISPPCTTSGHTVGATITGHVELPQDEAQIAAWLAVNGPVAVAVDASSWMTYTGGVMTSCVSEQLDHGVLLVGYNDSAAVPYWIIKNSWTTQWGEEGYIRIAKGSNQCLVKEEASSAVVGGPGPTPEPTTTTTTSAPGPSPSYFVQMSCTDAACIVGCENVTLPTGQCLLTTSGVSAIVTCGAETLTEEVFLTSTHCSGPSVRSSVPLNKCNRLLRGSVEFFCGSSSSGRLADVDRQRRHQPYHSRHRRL
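Purified cruzain at 1.5 nM, pre-incubated 15 min with compound at room temperature in 100 mM sodium acetate pH 5.5, 5 mM DTT, 0.00005% Triton X-100. Reaction started with 2 uM Z-FR-AMC; AMC fluorescence increase over 60 s gives rate.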
Cruzain inh Det: inhibitors of Trypanosoma cruzi cruzain with detergent | P25779 | purified cruzain, Z-FR-AMC fluorescence, 0.01% Triton | Potency, µM, for inactives: max response, negative = inhibition, usual class: inhibitors | actives 0.43% (n = 200,000); active = well fitted curve in the direction sought with a large enough effect; inconclusive = small, poorly fitted or top-dose-only effect, or another doubt; inactive = no such curve, though single readings can be large; an effect the other way counts as inactive or inconclusive;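 also: plate controls were neutral wells for no effect and buffer without enzyme for full effect; nearly all actives have a fitted effect of over 40% in size; top concentration of the series not given in the record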
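In this qHTS format, compounds are incubated with 1.5 nM cruzain for 15 min at room temperature before 2 uM Z-FR-AMC is added. Release of AMC is followed at 360/450 nm, and progress is taken as the 60 s fluorescence difference.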
Starred values were filed as active, the others as inactive; ? = inconclusive; . = no result given; & = joins results of further samples; [ ] = remark or other dose. Unless noted, calls follow the shape of the dose curve; as a rule, active means well fitted rising curve with a large enough effect; inconclusive means small, poorly fitted or top-dose-only effect; inactive means no such curve, though single readings can be large or run the other way. Potency is read from the fitted curve at half-maximal effect.

SMILES	Lassa entry inh	2A StopGo	NS1 inh	Marburg entry inh	SARS PLpro yeast	RE007 growth inh	Cruzain noTriton	Cruzain inh Det
CN(CC(=O)Nc1ccccc1C(F)(F)F)C(=O)c1cc(Cl)nc2ccccc12	-8%	-17%	.	-3%	-4%	-6%	.	.
Cc1sc2nc(CSCC(=O)N(C)c3ccccc3)[nH]c(=O)c2c1C	-14%	?	18%	?	?	-5%	1%	-3.4%
O=C(NCC(=O)N1CCN(c2ccccc2O)CC1)c1ccc(Br)o1	-10%	-7%	.	-1%[46.1 µM]	3%	-15%	.	.
C/C(N)=C(/C#N)C(=O)COc1ncnc2ccccc12	8%	10%	2%	23%	-1%	-2%	-8%	1.6%
COc1ccc(-n2nc(C(=O)NCCc3cccc(C)c3)c3c4ccccc4n(C)c3c2=O)cc1Cl	23%[46.1 µM]	-24%	.	-1%[46.1 µM]	.	.	-1%	-0.7%
CCCCS(=O)CC(O)COc1ccc(C(C)(C)C)cc1 (stereo not drawn)	-16%[14.3 µM]	-9%	-49%	4%	-10%	13%	13%	3.6%
O=C(CCS(=O)(=O)c1ccccc1)N1CCN(c2ccccc2)CC1	-5%	19%	8%	-7%	-1%	-3%	.	.
CCOc1ccc(NS(=O)(=O)c2ccc(C(=O)N3CCCCCC3)cc2)cc1	?	?	.	?	4%	1%	.	.
O=C(CSc1nc2cc(Cl)ccc2c(=O)n1Cc1ccco1)Nc1ccc(S(=O)(=O)N2CCOCC2)cc1	-2%&-24%	36%[activator]	?	?	9%	26%	?	-4.8%
Cc1cccc(C)c1NC(=O)CN(C)C(=O)c1ccc(COc2ccccc2)cc1	-17%	20%	8%	1%	0%	-8%	.	.
CCC(C)(C)n1nnnc1C(c1ccc(Cl)cc1)N1CCN(C)CC1 (stereo not drawn)	?	-9%	0%	?	-1%	-6%	-2%	0.1%
CCN(CC)c1ccc(/C=N/N2CCN(Cc3ccccc3Cl)CC2)cc1	1%	-14%	9%	?	-6%	-7%	.	.
Cn1nc(NC(=O)CC23CC4CC(CC(C4)C2)C3)c2c(F)cccc21	.	-1%	-4%	.	3%	-2%	.	.
CC(=O)c1ccc(NC(=O)c2ccc(S(=O)(=O)c3ccccc3)cc2)cc1	?	?	-1%	?	4%	-21%	8%	-5.5%
COC(=O)c1ccc(C(=O)N=c2sccn2C)cc1	8%	0%	-8%	?	-22%	2%	.	.
CCCc1nc2nc(C)c(NS(=O)(=O)c3ccc4c(c3)CCCC4)c(=O)n2[nH]1	?	-1%	11%	4%[46.1 µM]	0%	3%	.	.
COc1ccc(CCNC(=O)c2ccc3c(c2)N(Cc2cccc(Cl)c2)C(=O)c2ccccc2S3=O)cc1OC (stereo not drawn)	?	-20%	.	.	.	.	-12%	-1.9%
Cc1cc(N2C(=O)C(O)=C(C(=O)c3ccc(C)o3)C2c2ccc(OCc3ccccc3)cc2)no1 (stereo not drawn)	12%	-3%	-44%	-3%[46.1 µM]	2%	-6%	.	.
COc1ccc(N2C(=O)[C@@H]3[C@H](C2=O)[C@H]2c4ccccc4C=CN2[C@@H]3C(C)=O)cc1	11%&14%	-25%	9%	8%&-15%	-2%	.	-25%	-4.7%
O=C(NC(=S)Nc1ccccc1N1CCOCC1)c1ccc(-c2cccc(Cl)c2)o1	19%	-22%	15%	0%	10%	-15%	?	-0.8%
CCOC(=O)c1cnc2c(Cl)cccc2c1NCCN(C)C	-13%	3%	1%	-12%[46.1 µM]	5%	0%	2%	-4.2%
O=c1[nH]c2cnccc2n1-c1ccccc1	1%	-7%	3%	20%	-3%	-22%	1%	-0.9%
CCC(C)NC(=O)c1sc2nc(C)c(C(=O)Nc3ccc(Cl)cc3)c(-c3ccc(Br)cc3)c2c1N (stereo not drawn)	21%[46.1 µM]	-24%	.	?	.	.	0%	2.1%
Cc1ccc(C(=O)OCC(=O)N(C)c2ccccc2)cc1C	-9%	0%	-8%	0%[46.1 µM]	6%	-18%	.	.
COc1ccc(Br)c(-c2nnc(CS(=O)(=O)c3ccccc3)o2)c1	?	13%	6%	?	-2%	-3%	.	.
CCC[C@@H]1C[C@@]1(CCC)[C@@H](NC(=O)c1ccccc1)c1ccc(C(=O)OC)cc1	1%	13%	-39%	-21%	-43%	-1%	1%&-9%	-5.6%&-1.5%
COc1cccc(/C=N/NC(=O)CC(=O)NCCc2ccccc2)c1OC	-2%	-21%	-4%	-2%	16%	6%	3%	-0.1%
CCCOCCOC(=O)C1=C(C)NC(=O)NC1c1cc(Cl)c(O)c(OC)c1 (stereo not drawn)	4%	.	-14%	15%	7%	-13%	0%	2.2%
CCOC(=O)c1ccc(NC(=O)CSc2nnc(C3CCCCC3)n2C)cc1	-3%	23%	3%	-10%	14%	13%	8%	0.6%
CCCC(=O)NCCc1cc2ccc(C)c(C)c2[nH]c1=O	.	15%	-7%	.	2%	0%	6%	-1.2%
Cc1ccc(CCNC(=O)c2cc(S(=O)(=O)N3CCOCC3)cn2C)cc1	.	-1%	-8%	.	1%	14%	.	.
O=C(Cc1ccc(-c2ccccc2)cc1)NCCN1CCOCC1	-4%	-10%	-13%	13%[46.1 µM]	?	6%	3%	4.5%
C=CCn1c(CSCc2ccccc2)nnc1SCC(=O)N1CCN(c2ccccc2)CC1	-23%	-28%	13%	?	-1%	17%	?	-7.6%
C=CCOc1ccc(C2C(C(=O)c3ccco3)=C(O)C(=O)N2c2nnc(C)s2)cc1 (stereo not drawn)	8%	-13%	15%	13%	0%	2%	.	.
CS/C(N)=N/N=C/c1cc(Br)cc(Br)c1O	.	30%	-1%	.	-6%	-30%	.	.
CCOc1ccc(C(CCc2ccccc2)NC(=O)c2ccc(OC)c(OC)c2)cc1OCC (stereo not drawn)	-23%	9%	3%	?	10%	8%	?	-2.6%
O=C(Nc1ccc(Cl)cc1)C1CCN(S(=O)(=O)c2ccc(Br)s2)CC1	?	?	.	-15%[46.1 µM]	.	.	-26%	-6.1%
O=C(Cc1ccc(F)cc1)OCN1C(=O)c2ccccc2C1=O	11%[46.1 µM]	-10%	-24%	3%[46.1 µM]	-2%	-13%	.	.
COc1ccc(/C=N/NC(=O)CCc2c(C)n[nH]c2C)cc1OC	1%	6%	5.6µM*	10%	14%	-12%	-8%	5.3%
CCN(CC(=O)Nc1ccc(N2CCOCC2)cc1)CC(=O)NC(C)(C)C	20%[46.1 µM]	-5%	.	?	1%	-10%	.	.
CCN1CCN(C(c2ccccc2F)c2c(O)cc(C)n(CCOC)c2=O)CC1 (stereo not drawn)	7%[46.1 µM]	-22%	.	.	.	.	0%	0.8%
CCOC(=O)c1cccc(NC(=O)c2ccc3nc(C(C)C)oc3c2)c1	?	-10%	.	.	.	.	?	-6.1%
Cc1ccc(NC(=O)CN(C)C(=O)COC(=O)CNS(=O)(=O)c2ccc(Br)cc2Cl)cc1	0%	-20%	2%	6%	0%	-1%	.	.
O=C(NC1(C(F)(F)F)NC(=O)N(Cc2ccco2)C1=O)c1cccnc1 (stereo not drawn)	-1%	0%	12%	-25%	2%	-8%	-9%	1.2%
O=C(CN1CCCCC1)Nc1cccc([N+](=O)[O-])c1	10%	19%	3%	-18%	4%	-7%	-3%	4.0%
COc1ccc(C(=O)NCc2nnc(SCC(=O)Nc3ccc(F)cc3)n2-c2ccccc2)cc1	?	5%	.	21%[46.1 µM]	.	.	8%	0.4%
COc1ccccc1OCCC(=O)OCC(=O)c1c(N)n(C)c(=O)n(C)c1=O	5%	-5%	-5%	-22%[46.1 µM]	-1%	-14%	.	.
COc1cccc(NC(=O)N2CCCC(C(=O)NCc3ccc(F)cc3)C2)c1 (stereo not drawn)	5%	14%	-2%	-1%	0%	8%	4%	-3.2%
COc1ccc(C(NCC(=O)NC(C)c2ccc(Cl)cc2)c2ccccc2)cc1 (stereo not drawn)	.	-19%	-9%	.	-1%	-8%	.	.
O=C(COc1ncnc2scc(-c3ccc(F)cc3)c12)NCc1ccco1	9%	-23%	14%	-17%	2%	-12%	2%	-0.5%
CC[N+](C)(CC)CCC/C(=N/O)C(O)(c1ccccc1)c1ccccc1	1%	7%	3%	-17%[46.1 µM]	1%	-11%	.	.
COC(=O)/C(=C/Nc1ccc(O)cc1)[N+](=O)[O-]	10%	-22%	6%	-17%	-6%	7%	3%	-13%
CCN(CC)Cc1cc2ccccc2c2c1COC2	6%	-11%	1%	-1%	5%	4%	0%	1.5%
Cc1nnc(SCCn2c(N3CCCC(C)C3)nc3c2c(=O)n(C)c(=O)n3C)s1 (stereo not drawn)	.	-17%	-32%	.	2%	12%	-4%	-4.7%
CN1CCN(CC(=O)Nc2ccc(OCc3ccccc3)cc2)CC1	.	.	-6%	-1%	9%[6.58 µM]	.	0%	1.1%
O=C(Nc1ccc(Cl)cc1)OCc1cn(-c2ccccc2)nn1	-11%	-6%	.	-3%[46.1 µM]	-2%	-2%	.	.
C/C(Cc1ccccc1)=N\NC(=O)CNC(=O)c1ccccc1	.	-14%	2%	.	-22%	-3%	9%	1.6%
CC(=O)Nc1ccc(S(=O)(=O)NNC(=O)COc2ccc(C)cc2)cc1	5%	3%	7%	?	4%	2%	2%	-2.8%
O=C(O)c1nnn(-c2cc(C(F)(F)F)cc(C(F)(F)F)c2)c1-c1ccccc1	-4%	-24%	2%	2%	0%	-11%	.	.
Cc1nn(-c2ccccc2)c(C)c1NC(=O)COC(=O)Cc1ccccc1F	0%[46.1 µM]	4%	.	24%	-6%	21%	.	.
O=C(C1CCCN(S(=O)(=O)c2ccccc2)C1)N1CCCCCC1 (stereo not drawn)	?	-25%	-3%	?	24%	2%	-2%	-1.4%
O=C(c1ccco1)N1CCN(C(=O)N2CCCC2)CC1	7%	-3%	7%	9%[46.1 µM]	1%	1%	.	.
